Bioassay records as filed in PubChem.
TAR Tat displ = HIV-1 TAR-Tat binding disruption; z-score (concentration not given with the values); 100,000 compounds, 0.6% hits; HIV-1 TAR RNA, Tat peptide displacement FRET; hits give high values;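 also: score is relative to mean and SD of negative controls; some compounds called inactive have numbers as strong as hits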
CDC25B-CDK2 inh = human CDC25B-CDK2/CyclinA binding inhibition | P30305+P24941 | HTRF CDC25B-CDK2/CyclinA binding, anti-His/anti-Flag; hits give high values | z-score (no concentration beside the values) | 94,000 compounds, 0.72% hits | AID 1259370;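 also: score is relative to mean and SD of negative controls; strong numbers were not always called active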
An asterisk follows results filed as active; . = no result given.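 The calls were made as follows: active = z-score from 3 up in half or more of its runs; inactive = the rest.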 Rows were taken by chance, and some 0.94% of all compounds hit somewhere here.

Values run as follows: TAR Tat displ, CDC25B-CDK2 inh
> Cn1c(=O)c2c(-c3ccccc3Br)n(-c3ccc4[nH]c(=O)[nH]c4c3)cc2n(C)c1=O
    2.3, 6.2*
> CC1(C)CC(=O)c2c(S(C)(=O)=O)sc(C#N)c2C1
    ., -0.62
> CCOC(=O)C1CCC(CNC(=O)N2CCn3cccc3C2C)CC1 (centres undefined)
    -2.9, .
> COC(=O)c1c(SC)[nH]c2ccsc2c1=O
    0.54, -0.94
> COc1cc(C2C(C#N)=C(N)OC3=C2C(=O)CC(C)(C)C3)ccc1OCC(N)=O (centres undefined)
    ., -0.88
> Cc1ccc(C2C3C(=O)N(C(C)C)C(=O)C3ON2c2ccc(Cl)cc2)cc1 (centres undefined)
    -0.58, 0.39
> CC1=C(c2ccccc2)S(=O)(=O)N=C1N1CCN(c2ccccn2)CC1
    -0.9, -2.9
> CCc1ccc2oc(C(=O)Nc3sc4c(c3C(=O)NCc3ccco3)CCC4)cc(=O)c2c1
    0.94, -1.8
> OC1(c2cccc3ccccc23)CCN(Cc2ccccc2)C1 (centres undefined)
    ., -2.2
> COC(=O)CN1C(=O)CSc2ccc(S(=O)(=O)Nc3ccc(OC)c(Cl)c3)cc21
    -0.16, .
> CSc1cccc(NC(=O)c2cc3c(s2)-c2ccsc2CC3)c1
    1.6, .
> O=C1CSC(CS(=O)(=O)Cc2cccc(C(F)(F)F)c2)=N1
    ., -0.5
> CCOC(=O)c1c(Nc2ccccc2)sc([N+](=O)[O-])c1N
    ., -1.4
> C=CCn1c(SCc2ccc(Cl)cc2)nc2cc(C(=O)NCC3CCCO3)ccc2c1=O (centres undefined)
    ., -2.5
> Cc1cc(Nc2ccc(C)c(C)c2)n2nc(-c3ccco3)nc2n1
    -3.5, .
> COc1cc(OC)c(NS(=O)(=O)c2ccc3c(c2)CCCC(=O)N3)cc1Cl
    -1.1, .
> CC1CCN(c2nc(N)c([N+](=O)[O-])c(Nc3ccccc3)n2)CC1
    0.6, .
> CCOC(=O)c1c(NC2SC(=O)N(c3ccccc3)C2=O)sc(C)c1C (centres undefined)
    4.2, -1.9
> CN1C(=O)CC(NCc2ccc3c(c2)OCO3)C1=O (centres undefined)
    0, -1.5
> CCOC(=O)N1CCN(C(=O)c2sc3nc(C)nc(N4CCCCC4)c3c2C)CC1
    0.81, .
> CC1CCCN(c2cc(NCCO)c3c4c(onc24)-c2ccccc2C3=O)C1 (centres undefined)
    2.7, -0.36
> Cc1ccc(N(C)S(=O)(=O)c2ccc(-c3cnc(C)o3)cc2)cc1
    0.63, .
> NNC(=O)c1cccc2cc[nH]c12
    ., -1.8
> Cc1nnc2nc(-c3ccccc3F)[nH]n12
    ., -0.92
> Cn1c(=O)c(=O)n(C)c2cc(N3CCCC3)c(NC(=O)c3cccs3)cc21
    -0.29, -0.68
> COc1ccc(C(C)=O)cc1CSc1ccc(Cl)cc1
    ., 0.82
> Cc1ccc(Oc2c(C)[nH]c(=S)[nH]c2=O)cc1
    ., -1.9
> Clc1snnc1CN1CCOCC1
    ., -0.9
> O=C(Nc1nc2ccc(Cl)cc2s1)c1nn(-c2ccc(F)cc2)ccc1=O
    1, -1.7
> CCOC(=O)c1noc2ncnc(Nc3cc(C)cc(C)c3)c12
    0.43, .
> Cc1cc(NC(=O)c2ncoc2-c2ccco2)no1
    0.36, .
> COc1ccc(S(=O)(=O)N2CCN(c3ccccc3OC)CC2)cc1
    -0.22, -0.65
> COc1ccc(Nc2nn3nnnc3c3ccccc23)cc1
    0.14, -0.08
> CN(CC(=O)O)c1ncc(-c2nnnn2-c2ccccc2)c(-c2ccccc2Cl)n1
    ., -1.3
> O=C(O)C1C2CCC(Br)(CC2)C1C(=O)O (centres undefined)
    ., -1.4
> O=S(=O)(c1cccc2nsnc12)N1CCN(c2cc(-c3ccccc3)ncn2)CC1
    0.97, .
> O=C(O)c1c2c(nc3ccc(S(=O)(=O)N4CCC(C(=O)NC5CCCC5)CC4)cc13)CCCCC2
    ., -1.6
> Cc1ccc(C(=O)NC2CC2)cc1NC(=O)C1=CSCCO1
    1.2, .
> Cc1c(C(=O)N2CCC(C)CC2)oc2ccc(S(=O)(=O)N3CCCC3)cc12
    ., -0.03
> COc1ccc(-c2nc(N3CCOCC3)nc3nn4c(C)cc(C)nc4c23)cc1
    ., 0
> FC(F)(F)c1cc(-c2ccncc2)n[nH]1
    ., 0.02
> C#CCn1nnc(-c2cc(C(F)(F)F)cc(C(F)(F)F)c2)n1
    ., -3.1
> CC(NS(=O)(=O)c1ccc2c(c1)C(C)(C)C(=O)N2C)c1ccccc1 (centres undefined)
    1.6, .
> Cc1ccc(C)c(-n2nnc(-c3nc(-c4ccccc4F)no3)c2C)c1
    0.32, .
> Cc1ccc(S(=O)(=O)NCCSc2ncccn2)cc1
    ., 2.3
> CCCn1c(=O)c2ccc(C(=O)NC(C)C)cc2n2c(=O)[nH]nc12
    -0.86, -1.6
> O=C(CN1C(=O)c2cccnc2Sc2ccccc21)NC1CCCCC1
    -0.56, .
> O=C(CS(=O)(=O)c1ccc(C(F)(F)F)cn1)NNS(=O)(=O)c1cccc(C(F)(F)F)c1
    ., 0.57
> CSc1nc(NCCOC(C)=O)c(C#N)c(-c2ccc(C(C)(C)C)cc2)n1
    0.33, -0.12
> CCOC(=O)Cc1csc2nc3sc4c(c3c(=O)n12)CCCC4
    ., -0.84
> O=C(Cn1ncc2c3ccccc3n(Cc3ccccc3F)c2c1=O)NCC1CCCO1 (centres undefined)
    0.85, -1.6
> O=C1CC(C(=O)Nc2ccc(Cl)cc2)n2ncnc2N1 (centres undefined)
    0.9, 3.9*
> CC1(C)Cc2c(c(N3CCOCC3)nc3sc(C(=O)Nc4ccccc4)c(N)c23)CO1
    1.1, -0.09
> CCOC(=O)c1c[nH]c2c(OC)cccc2c1=O
    -0.42, -0.03
> CN1CCN(C(=O)CCc2nnc3ccc(NCc4ccco4)nn23)CC1
    0.39, .
> CC(=O)c1sc(C(C)(C)C)cc1N
    ., -0.67
> COc1cccc(Nc2c3c(nc4ncnn24)CCC3)c1
    1.4, .
> Cc1cc(-c2cccnc2)c(C#N)c(SCC(=O)O)n1
    0.82, -0.77
> COC(=O)c1ccc(CSc2ccc3nnc(-c4ccccc4)n3n2)o1
    ., -0.07
> O=C1c2ccccc2C(Nc2ccc(Br)cc2F)N1c1ccc(Cl)cn1 (centres undefined)
    -0.79, -2.2

Carrying on:
Values run as follows: TAR Tat displ, CDC25B-CDK2 inh
> Cc1ccc(OCCSc2ncnc3nc[nH]c23)cc1C
    ., -0.71
> CC1(C)C(=O)Nc2ccc(S(=O)(=O)N3CCOCC3)cc21
    -1.8, .
> CC(C)(C)C(=O)Nc1ccc(OCc2cc(=O)n3ccccc3n2)cc1
    -6.7, .
> COc1ccc(OC)c(NC(=O)CSc2nnc(Cc3cccn3C)n2-c2ccc(F)cc2)c1
    ., -3.5
> CCNc1nc(NCc2ccccc2)c2cnn(C)c2n1
    0.45, .
> CCOCCCNC(=O)Cn1ncc2c(=O)oc3ccccc3c21
    1.6, -0.29
> CCc1ccc(S(=O)(=O)N2CCCN(S(=O)(=O)c3ccc(CC)cc3)CC2)cc1
    ., -0.82
> Cc1nc2ccn(Cc3ccco3)c(=O)c2cc1C(=O)NC1CCCC1
    0.7, .
> c1ccc(Nc2nc(CN3CCCCC3)cs2)cc1
    ., -0.95
> CCOc1ccc(C2C3=C(CCCC3=O)Nc3nc(-c4ccc(OC)cc4)nn32)cc1 (centres undefined)
    3.2, -0.66
> COc1cc(NC(=O)COc2ccc([N+](=O)[O-])cc2)ccc1NC(=O)c1ccco1
    ., -0.19
> CC1Cn2cc(C(=O)N3CCN(c4ccccn4)CC3)c(=O)c3c(Cl)ccc(c32)O1 (centres undefined)
    1.5, .
> Cc1nc(CCNC(=O)c2sc3ccccc3c2Cl)cs1
    0.38, -0.54
> O=c1c2cn(Cc3ccc(F)cc3)c3ccccc3c-2nn1Cc1ccc(F)cc1
    -0.61, .
> COc1cc(NS(=O)(=O)c2ccc3[nH]c4c(c3c2)CCCC4)cc(OC)c1
    2.2, .
> CC(C)Oc1ccc(Cc2nc(-c3cccc(Br)c3)n[nH]c2=O)cc1
    0.68, .
> CCn1nc(C)c(CCNC(=O)Nc2cccc(SC)c2)c1C
    -0.18, .
> Cn1nnnc1SCCCNCc1cccc(OCc2ccc(Cl)cc2)c1
    2, -1
> Cc1nc2ccc(S(=O)(=O)N(C)CC(=O)Nc3nccs3)cc2s1
    0.87, -0.81
> Cc1nc2c(ccc3ccccc32)o1
    ., -2.1
> O=C(O)C1(c2ccccc2)CCOCC1
    0.6, -0.73
> CCc1oc2ccccc2c1C(=O)c1cc(Br)c(O)c(Br)c1
    2.5, .
> Cc1nc(Nc2nc3ccccc3o2)nc(-c2ccccc2)c1C#N
    -0.54, -0.85
> CC(=O)c1cc2c(cc1NC(=O)CC1Oc3ccccc3NC1=O)OCO2 (centres undefined)
    ., -2
> CCOc1ccc(-n2cnc3c(sc4nc(N5CCOCC5)c5c(c43)CC(C)(C)OC5)c2=O)cc1
    1.2, -0.28
> Cn1nc(-c2ccccc2F)c2cc(C(=O)Nc3ccc4c(c3)OCCO4)sc21
    ., -0.43
> CSc1ccc(C2CC(=O)N3CN(c4cccc(C)c4)CSC3=C2C#N)cc1 (centres undefined)
    -2.6, 8.5*
> CCCN(CCC)S(=O)(=O)C1CCS(=O)(=O)C1 (centres undefined)
    -1.1, -2.9
> Cc1cc(Cl)ccc1OCc1cc(=O)n2c(-c3ccccc3)csc2n1
    -0.14, -5.3
> CCCNC(=O)C1CCN(c2cnccn2)CC1
    0.43, -1.5
> Cn1nnnc1SCCCNCc1ccc(-c2ccc(Br)cc2)o1
    2.7, -1.8
> CC1=C(C(=O)N2C(C)CCCC2C)C2(CCC(C)CC2)OC1=O (centres undefined)
    -0.15, -0.72
> Clc1cccc(Nc2nc3ccccc3n3cnnc23)c1
    -0.2, -3.8
> O=C(c1ccco1)N1N=C(c2ccccc2)CC1(O)C(F)(F)F (centres undefined)
    ., -1.9
> Cc1cc(OCC(O)Cn2c(C)nc3ccccc32)ccc1Cl (centres undefined)
    0.82, -0.61
> COCCc1nn2c(=O)cc(COC(=O)CCc3ccccc3)nc2s1
    -1.2, .
> CCCNc1nc(NCc2cccc(C)c2)c2cnn(C)c2n1
    1.8, .
> O=C1O[C@@H]2C[C@H]3C[C@@H]2[C@@H]1[C@H]3C(=O)N1CCN(c2ccccc2)CC1
    2.1, -0.81
> COc1cccc(N2CCN(c3ncnc4c3nc3n4CCCCC3)CC2)c1
    -2, .
> CC12CCC(C(=O)O)(CC1=O)C2(C)C (centres undefined)
    -0.17, 0.05
> COc1ccc(C(=O)Nc2sc3c(c2C(N)=O)CCCC3)cc1Br
    1.8, -3.1
> Cc1ccc(C(=O)Cn2nc(-c3ccccc3)c3c(c2=O)CCCC3)cc1
    1.7, -1.6
> CCN(CC)C(=O)c1noc(C)c1[N+](=O)[O-]
    -0.35, -0.96
> CC(=O)N1CCc2cc(Br)cc(S(=O)(=O)NC3COc4ccccc4C3)c21 (centres undefined)
    0.57, .
> CCc1nn2c(=O)cc(CSc3nc4sc5c(c4c(=O)n3C)CCCC5)nc2s1
    ., 0.7
> COc1ccc(-c2noc(Cc3ccc(C)cc3)n2)cc1
    0.11, -1.6
> OCC(CO)(CO)NC(=S)Nc1cc(Cl)cc(Cl)c1
    ., -1.6
> Cc1cc(CNC(=O)c2cc(C)n(C)n2)c(C(F)(F)F)o1
    ., 1.6
> COc1ccc(C(O)c2nc3ccccc3s2)cc1 (centres undefined)
    1.5, -0.28
> CC1=NN(C(=O)c2cc(C)nc3ccccc23)C(O)(C(F)(F)F)C1 (centres undefined)
    ., -0.82
> Cc1nn(C)c2c1c(C(F)(F)F)cc(=O)n2Cc1c(F)cccc1Cl
    -1.3, .
> CCC(=O)Nc1nnc(S(=O)(=O)N2CCCC2)s1
    1.9, -0.12
> CCC(Sc1nnc(NC(C)=O)s1)C(=O)NC1=NN=C(c2ccc(C)cc2)CS1 (centres undefined)
    ., -1.7
> COc1ccc(C(=O)Oc2cc(N)n(S(=O)(=O)c3ccc(OC)cc3)n2)cc1
    -0.12, 0.67
> C=C(C)Cc1c(C)[nH]n(S(=O)(=O)c2ccccc2)c1=O
    ., 0.15
> Cc1ccc(C2CC(=O)Nc3nc(SCc4ccc(F)cc4)[nH]c(=O)c32)c(C)c1 (centres undefined)
    2.6, -1.4
> COc1cccc(C=Nc2ccccc2SCCC#N)c1O
    ., 6.9*
> C=CCN(C(=O)CSc1nncn2c1cc1oc(C)cc12)c1ccccc1
    -2.7, .
> COC(=O)c1cc(/C=N/Nc2ccc([N+](=O)[O-])cn2)cn1C
    ., -2.2
